HPGD inh – blocks human HPGD enzyme activity | AID 894 | purified HPGD, NADH fluorescence kinetic, PGE2 substrate | 4.3% of 150,000 active | Potency, µM, for inactives: top-dose activity change, negative = inhibition, hits mostly inhibitors | P15428; active = well fitted inhibition curve with a large enough effect (not every such curve was filed as active); inconclusive = small, poorly fitted or top-dose-only effect, or another doubt; inactive = no such curve, though single readings can be large or run the other way;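 also: top concentration of the series not given in the record; plate controls included wells without enzyme; inactives centre near -10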
Target sequence (P15428 whole entry, looked up): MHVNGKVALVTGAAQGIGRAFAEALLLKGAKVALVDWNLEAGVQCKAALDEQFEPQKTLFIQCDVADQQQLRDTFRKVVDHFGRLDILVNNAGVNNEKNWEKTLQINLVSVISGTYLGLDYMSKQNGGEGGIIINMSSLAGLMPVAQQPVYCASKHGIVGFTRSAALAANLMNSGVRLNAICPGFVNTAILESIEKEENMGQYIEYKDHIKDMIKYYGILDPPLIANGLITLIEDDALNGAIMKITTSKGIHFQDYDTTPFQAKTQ
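NADH formation kinetics: reaction with 30 uM PGE2 and 1 mM NAD+ (final), 20 nM enzyme, Tris-HCl pH 8 with Tween 20, after 15 min compound preincubation at room temperature. Fluorescence change, last versus first of five reads.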
Numbers without * were called inactive; ? = inconclusive. % is scaled to controls: 0 for no effect and ±100 for the full control effect; potency is read from the fitted curve at half-maximal effect. Some of the compounds tested (hit frequency here may not be typical).

COc1ccc(Cl)cc1NC(=O)C(C)OC(=O)c1ccc(NS(=O)(=O)c2ccc3[nH]c(=O)[nH]c3c2)cc1 (stereo unspecified)
- HPGD inh = -15%
Cn1cc(SCC(=O)Nc2ccc3c(c2)OCCO3)c2ccccc21
- HPGD inh = -13%
O=C(O)c1ccccc1NS(=O)(=O)c1ccccc1F
- HPGD inh = -12%
CC(=O)N1CCC2(CC1)CCN(C(=O)Nc1cccc(F)c1)CC2
- HPGD inh = -9%
CCC1(C)CC(CC(=O)O)(c2ccccc2OC)CCO1 (stereo unspecified)
- HPGD inh = 1%
C=CCNC1=C(Cl)C(=O)N(c2ccccc2Cl)C1=O
- HPGD inh = -17%
Nc1nc(Br)c2c(F)cccc2c1-c1ccc(F)cc1
- HPGD inh = -23%
Cc1noc(C)c1COc1cccc(C(=O)Nc2ccc(C#N)cc2)c1
- HPGD inh = -10%
COc1cc(OC)c(/C=N/NC(N)=S)cc1Br
- HPGD inh = -17%
CCCCCC(=O)Nc1sc(C)c(C)c1C#N
- HPGD inh = 25µM*
C=CCOc1c(Br)cc(CNc2ccc(NC(=O)C(C)C)cc2)cc1OCC
- HPGD inh = -22%
O=C1N(CN2CCC3(CC2)OCCO3)c2ccccc2C12OCCCO2
- HPGD inh = -2%
CC1CC(C)CN(C(=O)COC(=O)c2ccc[nH]c2=O)C1 (stereo unspecified)
- HPGD inh = 0%
COc1ccc2c(c1)C(=O)OC2CC(=O)O (stereo unspecified)
- HPGD inh = -14%
CCN(CC)CC(=O)n1c2c(c3ccccc31)CCCC2
- HPGD inh = -10%
CCOc1ccc2c(c1)s/c(=N\S(=O)(=O)c1ccc(OC)cc1)n2C(F)F
- HPGD inh = -7%
c1ccc(Cc2nn3c(COc4ccccc4)nnc3s2)cc1
- HPGD inh = 10µM*
CC(C)C(C(=O)Nc1sc2c(c1C#N)CCCCC2)N1C(=O)c2ccccc2C1=O (stereo unspecified)
- HPGD inh = -16%
CC(C)CCCC(C)C1CCC2C3=CC[C@@H]4CC(O)CC[C@@]4(C)C3CC[C@]21C (stereo partly specified)
- HPGD inh = -7%
CCOC(=O)CCC(=O)c1c(C)oc2ccc(OC)cc12
- HPGD inh = -2%
CC(NC(=O)CCc1ccccc1)c1cc2c(cc1Cl)OCCO2 (stereo unspecified)
- HPGD inh = -4%
O=[N+]([O-])c1ccc(O)c(/C=N/n2cnc3ccccc32)c1
- HPGD inh = 14µM*
CSCCC=O
- HPGD inh = -4%
COc1cccc(-c2cc(C(=O)N3C(C)CCCC3C)no2)c1 (stereo unspecified)
- HPGD inh = 8.9µM*
Cc1cccc(C#N)c1NC1=CC(=O)CC(C)(C)C1
- HPGD inh = -14%

Copied from the results shown (4 entries):
CC(=O)N1CCC2(CC1)CCN(C(=O)Nc1cccc(F)c1)CC2
- HPGD inh = -9%
CCC1(C)CC(CC(=O)O)(c2ccccc2OC)CCO1 (stereo unspecified)
- HPGD inh = 1%
C=CCNC1=C(Cl)C(=O)N(c2ccccc2Cl)C1=O
- HPGD inh = -17%
Nc1nc(Br)c2c(F)cccc2c1-c1ccc(F)cc1
- HPGD inh = -23%

The list continues:
CC(C)CCn1c(CN2CCOCC2)nc2c1c(=O)n(C)c(=O)n2C
- HPGD inh = -12%
O=C(NNC(=O)c1sccc1-n1cccc1)c1ccc(Cl)cc1
- HPGD inh = -13%
O=C(OCC(=O)N1CCCc2ccccc21)c1ccc(Cl)nc1
- HPGD inh = -2%
CCOC(=O)CCSc1nc(-c2ccccc2)cc(C(F)(F)F)n1
- HPGD inh = -2%
CCC(=O)NCCNC(=O)c1c(SC)nsc1SC
- HPGD inh = -7%
O=C(/C=C/c1ccccc1)NCCSCc1ccc(Cl)cc1
- HPGD inh = -11%
O=C(/C=C/c1ccccc1)NC(NC(=S)Nc1ccc(Cl)cc1Cl)C(Cl)(Cl)Cl (stereo unspecified)
- HPGD inh = -6%
c1ccc(-c2noc(CSc3nnnn3-c3ccccc3)n2)cc1
- HPGD inh = -5%
O=c1oc(-c2ccccc2)nc2sc3c(c12)CCC3
- HPGD inh = -24%
Cc1ccc(-c2nnn(CC(=O)O)n2)cc1
- HPGD inh = -17%
CCOC(=O)c1c(-c2cccs2)csc1NC(=O)c1ccco1
- HPGD inh = ?
O=C(O)c1cc2ccccc2[nH]1
- HPGD inh = ?
CCc1nnc(NC(=O)CSc2nnc(C3CCCCC3)n2-c2cccc(Cl)c2)s1
- HPGD inh = 5%
COc1ccc(NC(=O)CN(c2cccc(F)c2)S(C)(=O)=O)cc1OC
- HPGD inh = -7%
CCCCCCCCCCCCCCC1CO1 (stereo unspecified)
- HPGD inh = -2%
COc1ccc(OCc2nnc(SCC(=O)N3c4ccccc4Sc4ccc(Cl)cc43)o2)cc1
- HPGD inh = -4%
CCC1CCCCN1CC(=O)c1c(C)[nH]c2ccccc12 (stereo unspecified)
- HPGD inh = -12%
Cc1nc(C(=O)Nc2ccc(Cl)cc2Cl)nn1-c1cc(OC(C)C)c(Cl)cc1Cl
- HPGD inh = ?
Cc1ccc(Cn2c(=S)[nH]c3ccc(N4CCOCC4)cc3c2=O)o1
- HPGD inh = ?
NC(=O)C1(N2CCCCC2)CCN(c2nc(-c3ccccc3)cs2)CC1
- HPGD inh = -8%
CCOC(=O)C1=C(CC)OC(N)=C(C#N)C1c1cc(OC)ccc1OC (stereo unspecified)
- HPGD inh = -4%
COc1cccc(/C=N/NC(=O)c2ccc(OCc3cccc(Br)c3)cc2)c1
- HPGD inh = ?
CCC(=O)Nc1ccc(N2CCC(C)CC2)cc1
- HPGD inh = 0%
CC(=O)/C(=N\Nc1ccc(Cl)cc1)Sc1nnc(-c2ccccc2)n1-c1ccccc1
- HPGD inh = ?
O=C(CSc1nnnn1Cc1ccccc1)Nc1ccc2c(c1)OCCO2
- HPGD inh = -14%

O=C(CCCC(=O)N(CC(=O)NC1CCCCC1)Cc1ccco1)Nc1ccccn1
- HPGD inh = 0%
C=C1CCC2C(C)(CO)C(O)CCC2(C)C1C/C=C1\C(=O)OCC1O (stereo unspecified)
- HPGD inh = -5%
O=C(NC1CCCCC1)C(c1ccc(Cl)cc1)N1CCC2(CC1)OCCO2 (stereo unspecified)
- HPGD inh = -18%
Cc1cccc(NC(=O)c2ccc(OCC3CCCO3)cc2)c1C (stereo unspecified)
- HPGD inh = -11%
O=C(O)c1ccccc1C1c2ccccc2Oc2ccccc21
- HPGD inh = 1%
COc1ccc(NC(=O)COc2ccc(/C=N/n3c(C)nnc3C)cc2OC)cc1
- HPGD inh = -10%
CCCOc1ccc(C2NC(=O)NC2=O)cc1 (stereo unspecified)
- HPGD inh = -3%
CCn1c(SCC(=O)Nc2ccc(NC(=O)c3cccs3)cc2)nnc1-c1cccnc1
- HPGD inh = -16%
Cc1cccc2cc(CN(Cc3cccnc3)C(=O)c3ccccc3F)c(Cl)nc12
- HPGD inh = -13%
Cc1cccc(NC(=O)CO/N=C/c2ccc3c(c2)OCO3)c1
- HPGD inh = -21%
CCOc1ccc(NS(=O)(=O)c2ccc(NC(=O)C3CCCO3)cc2)cc1 (stereo unspecified)
- HPGD inh = -7%
CC(C)c1ccc(N(C(=O)c2cc3ccccc3oc2=O)C2C=CS(=O)(=O)C2)cc1 (stereo unspecified)
- HPGD inh = -18%
O=C(O)Cn1nc(-c2ccc(F)cc2)oc1=O
- HPGD inh = 1%
COc1cc2c(cc1NC(=O)CN1C(=O)NC3(CCc4ccccc43)C1=O)oc1ccccc12 (stereo unspecified)
- HPGD inh = ?
CCn1cc(/C=N/NC(=O)c2ccc(C#N)cc2F)c2ccccc21
- HPGD inh = -11%
Cc1ccc(C2(C(F)(F)F)N=C3Sc4cc(C)ccc4N3C(=O)N2)cc1 (stereo unspecified)
- HPGD inh = -16%
CC(=O)c1c(C)[nH]c(C(=O)COC(=O)CCSc2ccccc2)c1C
- HPGD inh = -16%
CC1(C)CC2CC(C)(CN2C(=O)COC(=O)CNC(=O)c2ccc(Cl)c(Cl)c2)C1 (stereo unspecified)
- HPGD inh = -7%
Cc1ccc(NC(=S)N(CCN(C)C)C(C)c2ccco2)cc1C (stereo unspecified)
- HPGD inh = -2%
COc1cccc(N2CCN(Cc3nc(N)nc(Nc4ccccc4OC)n3)CC2)c1
- HPGD inh = -15%
CCOc1ccc(CC(=O)N2CCN(c3ccc(N4CCOCC4)nn3)CC2)cc1OCC
- HPGD inh = ?
Cc1cc(/C=C2/SC(=O)N(CC(=O)N3CCOCC3)C2=O)c(C)n1-c1ccccc1F
- HPGD inh = -13%
COCCCNC(=O)Cn1nc(-c2ccc(C)cc2)ccc1=O
- HPGD inh = -24%
Cc1ccc(-c2nnc(SCC(=O)NNC(=O)COc3cccc(C)c3)n2C)cc1
- HPGD inh = -9%
O=C(C1CCCCC1)N1CCCC(c2nc3c(nnn3Cc3ccccc3)c(=O)[nH]2)C1 (stereo unspecified)
- HPGD inh = 14µM*

CCC(=O)Nc1cc2c(cc1C(=O)CC)OCCO2
- HPGD inh = -13%
CCN(CC)CCCNC(=O)c1nn(-c2ccccc2OC)c(=O)c2ccccc12
- HPGD inh = -7%
Cc1cccc(Nc2nc3ccccc3s2)c1C
- HPGD inh = -11%
CC(=O)Nc1nonc1-c1nc2ccccc2n1Cc1nnc(C)o1
- HPGD inh = ?
Cc1nc(SCC(=O)OCc2ccccc2)c2c(=O)n(C)c(=O)n(C)c2n1
- HPGD inh = -16%
CCN(CC)S(=O)(=O)c1ccc(C(=O)NNC(=O)C2CCN(S(=O)(=O)c3ccc(Cl)cc3)CC2)cc1
- HPGD inh = -10%
CCOc1nc(SCCOc2ccc(C)cc2)nc(N(C)C)n1
- HPGD inh = -22%
CC1(C)CC2CC(C)(CN2C(=O)COC(=O)c2cc(Cl)cc(Cl)c2N)C1 (stereo unspecified)
- HPGD inh = ?
O=C(N/N=C/c1ccc(Cl)cc1Cl)c1n[nH]c2c1CCCC2
- HPGD inh = -6%
CCN(CC)S(=O)(=O)c1cc(NS(=O)(=O)c2cc(Cl)ccc2Cl)ccc1C
- HPGD inh = -6%
O=C(O)c1cccc(-n2cnnn2)c1
- HPGD inh = -4%
Cc1cc(C)nc(SCC(=O)Nc2ccccc2[N+](=O)[O-])n1
- HPGD inh = -18%
O=C(CSc1nnc(-c2ccco2)n1Cc1ccccc1)c1ccc(F)cc1
- HPGD inh = 25µM*
Cc1cccc(C(=O)NNC(=O)c2ccccc2)c1
- HPGD inh = 1%
COc1ccc(C(C)=O)cc1COC(=O)c1cccc(N(C)C)c1
- HPGD inh = ?
CCOC(=O)c1c(C)[nH]c(C)c1C(=O)CSc1nnc(-c2ccncc2)n1C
- HPGD inh = -1%
Cn1c(Cn2nnc3ccccc32)nnc1SCC(=O)N1CCc2ccccc21
- HPGD inh = -9%
COc1cccc(N2CCN(S(=O)(=O)c3ccc4nc(-c5ccccc5)[nH]c4c3)CC2)c1
- HPGD inh = -13%
CCOC(=O)c1[nH]c2ccccc2c1NC(=O)c1ccc(S(=O)(=O)N2CCCCC2)cc1
- HPGD inh = -2%
CC(C)c1ccccc1NC(=O)COC(=O)Cc1ccsc1
- HPGD inh = -10%
CCOc1ccccc1NC(=O)CSc1nnc(Cn2c(=O)sc3ccccc32)n1C
- HPGD inh = -13%
Cc1ccc(-c2cc(C(=O)OCC(=O)Nc3ncc(C(F)(F)F)cc3Cl)c3ccccc3n2)cc1
- HPGD inh = ?
O=C(O)CSCc1cn2cc(Cl)ccc2n1
- HPGD inh = -11%
CCOC(=O)C1C(=O)NC(SCC(=O)OC)=C(C#N)C1c1ccccc1OCC (stereo unspecified)
- HPGD inh = -8%
COc1ccc(-c2c(C)cc3oc(=O)cc(-c4ccccc4)c3c2C)cc1OC
- HPGD inh = -4%

Cc1ccc(C(=O)NNC(=O)C2CCCN(c3ncccn3)C2)cc1 (stereo unspecified)
- HPGD inh = -25%
CCOc1cc(S(=O)(=O)N(Cc2ccccc2)Cc2ccccc2)c(OCC)cc1-n1cnnn1
- HPGD inh = ?
COC(=O)CC1Oc2ccc(C)cc2NC1=O (stereo unspecified)
- HPGD inh = -7%
O=C(C1CCCN1S(=O)(=O)c1cccc2cccnc12)N1CCc2ccccc2C1 (stereo unspecified)
- HPGD inh = -14%
CCCCNc1nc(C)nc2c1nc(-c1ccccc1)n2CCCN(CC)CC
- HPGD inh = ?
OC(CCCCN1CCCCC1)c1ccccc1 (stereo unspecified)
- HPGD inh = 1%
NC(=O)C1(N2CCCCC2)CCN(S(=O)(=O)c2cc(Cl)ccc2Cl)CC1
- HPGD inh = -9%
Cc1cc(-c2ccccc2)n(-c2ccc(C(=O)NC(C)C)cc2)n1
- HPGD inh = -8%
Cc1nc(CNS(=O)(=O)c2ccc3ccccc3c2)cs1
- HPGD inh = -3%
CCN1CCN(C(=O)N[C@H](C(=O)N[C@@H]2C(=O)N3[C@@H]2SC(C)(C)[C@@H]3C(=O)O)c2ccccc2)C(=O)C1=O
- HPGD inh = 0%
CCN(CC)C(=O)CSc1nc2c(sc(=S)n2CC)c(=O)n1-c1ccccc1
- HPGD inh = -4%
Cc1ccc(C(C(=O)NC2CCCC2)N(C(=O)Cc2cccs2)c2cccc(C)c2C)o1 (stereo unspecified)
- HPGD inh = -20%
O=C(O)CCCC(=O)Nc1nc2n(n1)C(c1ccc(F)cc1)CC(c1ccc(Cl)cc1)N2 (stereo unspecified)
- HPGD inh = -11%
C=CCOc1ccc(CNn2cn[nH]c2=S)cc1OCC
- HPGD inh = -29%
CN(C)c1cccc(C(=O)OCC(=O)Nc2nccs2)c1
- HPGD inh = -13%
c1ccc2c(c1)OCC(c1csc3ncnc(N4CCCCC4)c13)O2 (stereo unspecified)
- HPGD inh = -14%
CC1Cc2ccccc2N1C(=O)CN1C(=O)NC(C)(c2ccc3c(c2)OCCO3)C1=O (stereo unspecified)
- HPGD inh = -16%
COc1cc(CNCCc2ccccc2)ccc1OCC(N)=O
- HPGD inh = 0%
COc1cc(OC)cc(C(=O)N2CCC(N3CCN(c4ccccc4)CC3)CC2)c1
- HPGD inh = -3%
CN1CCCC(OC(=O)CCCCC(=O)OC2CCCN(C)C2)C1 (stereo unspecified)
- HPGD inh = -5%
CN(C)C(CN1C(=O)C2CC=CCC2C1=O)c1cn(C)c2ccccc12 (stereo unspecified)
- HPGD inh = -7%
